Screens deposited in PubChem by Fisher Drug Discovery Resource Center.
NPYLR7 agonist: agonists of mosquito NPYLR7 receptor, primary screen, cell-based, Aedes aegypti, calcium fluorescence, mosquito biting behavior | Aedes aegypti neuropeptide Y-like receptor 7 (NPYLR7) | HEK293T NPYLR7/Galpha15, GCaMP6s calcium fluorescence | activation, % at 10 µM | 0.15% of 270,000 active | AID 1259423, 2018; in the data active = activation above about 40%;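 also: 0% = vehicle and 100% = reference agonist at the receptor; some compounds past the cut are filed as inactive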
NPYLR7 agonist max-min: second read-out of NPYLR7 agonist, no call of its own (marks repeat the call); activation, %; measured here: Max-Min RFU normalised activation; some inactives read as strong as hits;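 span of the calcium signal over five minutes; 0% = vehicle and 100% = native peptide agonist; compound fluorescence can raise it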
* = called active by the depositor; & = joins results of further samples. The list is partial (hit frequency here may not be typical).

Values in the order – NPYLR7 agonist | NPYLR7 agonist max-min
> COc1ccccc1-c1cc(CN2CCN(c3ccccc3)CC2)on1
 : 12 | 16
> Cc1cc(C)n(-c2nc3nonc3nc2Nc2ccc(I)cc2)n1
 : 0 | -2
> CC(=O)[C@H]1CC[C@H]2[C@@H]3C=CC4=CC(=O)CC[C@@]4(C)[C@@H]3CC[C@]12C
 : -7 | -13
> O=C(CC(c1ccc(F)cc1F)c1c[nH]c2ccccc12)NC1CC1 (stereo unspecified)
 : 1 | 12
> Cc1ccoc1C(=O)NCCN1C(=O)SC(=Cc2cccc(Cl)c2Cl)C1=O
 : -5 | -6
> COc1ccc(C(=O)CSc2nc3sc(C)c(C)c3c(=O)n2Cc2ccco2)cc1
 : 1 | 1
> CCCCN(CC(=O)N1c2ccccc2-n2cccc2C1c1cc(OC)ccc1OC)C(=O)Nc1ccc(OCC)cc1 (stereo unspecified)
 : 4 | 3
> CC(C)CCN(CCC(C)C)C(=O)c1ccc2c(c1)C(=O)NC2=O
 : -3 | -2
> Nc1ncnc2c1ncn2[C@@H]1O[C@H](CO)[C@H](O)C1O (stereo partly specified)
 : 96* | 74*
> NC(=O)C1CCN(c2ncnc3nc[nH]c23)CC1
 : 3 | 10
> CCCC(=O)OCC(O)CN(Cc1ccc(OC)cc1)Cc1cccc(C)c1 (stereo unspecified)
 : 34 | 34
> COc1ccc(C(=O)C(OC(=O)c2ccc(Br)o2)c2ccccc2)cc1 (stereo unspecified)
 : 1 | -4
> CC(C)(C)c1ccc(C2SCCN2C(=O)c2cccc(Cl)c2)cc1 (stereo unspecified)
 : 17 | 13
> CC(=O)Oc1cccc(/C=C2N=C(/C=C/c3ccccc3)OC/2=O)c1
 : 1 | 1
> CCCN(CC1CCCO1)C(=O)c1ccc(-n2cccc2)cc1 (stereo unspecified)
 : 1 | 0
> Fc1ccc(NN=Cc2ccc3c(c2)OCO3)c(F)c1
 : 2 | 0
> CC1CN(CC(=O)N2CCC(c3ccncc3)CC2)Cc2cc(Cl)ccc2O1 (stereo unspecified)
 : 14 | 7
> CC(C)CN(CC(=O)N(CCc1c[nH]c2ccccc12)Cc1ccc(C(F)(F)F)cc1)S(=O)(=O)c1ccc(Cl)cc1
 : 6 | 4
> CN1CCCc2ccc(S(=O)(=O)Nc3ccccc3N3CCC(C(N)=O)CC3)cc21
 : 0 | -8
> C=CCc1cc(CN2C[C@H](N(C)C)C[C@H]2CO)ccc1O
 : 14 | 13
> COc1cc(CNS(=O)(=O)c2ccccc2Cl)ccc1OCC(=O)N(C)C
 : 11 | 5
> O=C(COC1CCCC1)N(CC1CCC1)c1ccccc1
 : 11 | 10
> Cc1cc(C(=O)N2c3cccc4c3[C@@H](C[C@H]2C(N)=O)CN(C)C4=O)c(C)o1
 : 4 | 14
> CCOc1ccc(OCC(=O)Nc2cc(C)nn2-c2nc3c(c(=O)[nH]2)CCC3)cc1
 : 10 | 2
> Cc1nn(C)c(C)c1-c1ccnc(NCC2COc3ccccc3O2)n1 (stereo unspecified)
 : 13 | 4
> Cc1cc(CNC(=O)[C@H](C)n2cnnn2)c2[nH]c(C)c(C)c2c1
 : 1 | -4
> Cc1cnc(C(=O)OCc2c(C)cc(C(C)(C)C)cc2C)cn1
 : 7 | 6
> COCCCNC(=O)C(NC(=O)c1ccccc1F)C1CCN(C(=O)c2ccco2)CC1 (stereo unspecified)
 : 1 | 4
> CC1(NC(=O)Cc2c(F)cccc2Cl)CCS(=O)(=O)C1 (stereo unspecified)
 : 9 | 4
> Cc1cc2nc(CN3CCOC(c4ccc(F)cc4)C3)cc(=O)n2[nH]1 (stereo unspecified)
 : -2 | -4
> CS(=O)(=O)c1ccc(C(=O)N(CCCN2CCOCC2)c2nc3ccc(F)cc3s2)cc1
 : -4 | -6
> COC(=O)c1cc(Cl)c(NC(=O)c2cc3ccccc3oc2=O)cc1OC
 : 3 | 1
> CCn1c(C2CCCN(C3CCN(c4ccccc4)CC3)C2)nn(C)c1=O (stereo unspecified)
 : -5 | -6
> COc1ccc(-c2cc3nc(C)cc(=O)n3[nH]2)cc1OC
 : 1 | 26
> Cc1nc(NCCSc2cn[nH]n2)cc(C(C)C)n1
 : 2 | -1
> CCc1ccc(NC(=O)Cn2c(-n3nc(C)cc3C)nc3c(c2=O)CCCC3)cc1
 : -1 | -3
> CC(C)(C)OC(=O)COc1ccc2oc(=O)sc2c1
 : 17 | 6
> N#Cc1ccc(C=CC(=O)NCc2cccs2)cc1
 : 10 | 7
> Cc1ccccc1CSc1n[nH]c(=O)c2cc(-c3cccs3)nn12
 : -6 | -10
> COc1cc(OC)cc(C(=O)NC(C(=O)N(C)CC(C)C#N)C(C)C)c1 (stereo unspecified)
 : 5 | 3
> CCN1CCN(c2cc(C(C)C)nc(SCc3ccc(C(=O)N4CCCC4)cc3)n2)CC1
 : 10 | 21
> Cc1nc(-c2ccccn2)sc1C(=O)NC(C)c1cccc(Cl)c1 (stereo unspecified)
 : 2 | 0
> O=C(c1cc(-c2ccccc2)nc2cc(-c3ccccc3)nn12)N1CCN(c2ccc([N+](=O)[O-])cc2)CC1
 : 7 | 11
> COc1cc(CN2CCN(Cc3ccccc3C)C(CCO)C2)c(Cl)cc1O (stereo unspecified)
 : 2 | -1
> CCn1cnnc1CCNC(=O)c1cc(-c2cccn2C)n[nH]1
 : 0 | -2
> Cc1ccc(OCCN2C(=O)NC(C)(c3ccco3)C2=O)cc1 (stereo unspecified)
 : 3 | 2
> Cc1ccc(NC(=O)C(=O)N2CCCN(C)C3(CCN(C)CC3)C2)c(C)c1
 : 0 | 1
> Cc1nn(C)c(C)c1NC(=O)C(C)N(C)CC12CC3CC(CC(C3)C1)C2 (stereo unspecified)
 : 11 | 9
> CNC(=O)CNS(=O)(=O)c1cccc(Cl)c1
 : 3 | -1
> O=C(N=Nc1c(O)[nH]c2ccc(F)cc12)c1cc2ccccc2cc1O
 : -1 | -7
> CC(N)=C(C#N)C(=O)CSc1nc(C)nc2scc(-c3cccs3)c12
 : 3 | 8
> O=C(Cc1ccc(CSc2nnc(-c3cc(-c4ccccc4)nc4ccccc34)n2Cc2ccco2)cc1)OCC(=O)c1ccccc1
 : -4 | -10
> Cc1ccc2oc(C(=O)N(C)Cc3snnc3C)cc2c1
 : 3 | 2
> COc1cccc(C2NC(=O)c3ccccc3N2C)c1OC(C)C (stereo unspecified)
 : 2 | -1
> CN(Cc1ccccc1N1CCCCC1)c1c(C#N)c(=O)n(C)c(=O)n1C
 : 3 | 2
> Cc1ccc(C2NC(=O)c3ccccc3N2CC(N)=O)c(C)c1 (stereo unspecified)
 : 1&6 | 2&4
> N#CC1(c2ccccc2)CCN(C(=O)C2CCCCC2C(=O)Nc2cccc(C(F)(F)F)c2)CC1 (stereo unspecified)
 : -8 | -17
> CSCCCNC(=O)c1ccc(-c2ccc3c(c2)OCCO3)s1
 : 27 | 39
> O=C(c1ccccc1C1CCNC1)N1CCc2sccc2C1 (stereo unspecified)
 : 6 | 4
> Cc1cccn2c(CC(=O)N3CCOC4(CNCCOC4)C3)cnc12 (stereo unspecified)
 : 6 | 4

One compound at a time, from the list above.
O=C(c1ccccc1C1CCNC1)N1CCc2sccc2C1 (stereo unspecified) is listed as NPYLR7 agonist = 6; NPYLR7 agonist max-min = 4
COc1cc(OC)cc(C(=O)NC(C(=O)N(C)CC(C)C#N)C(C)C)c1 (stereo unspecified) is listed as NPYLR7 agonist = 5; NPYLR7 agonist max-min = 3
COc1cc(CN2CCN(Cc3ccccc3C)C(CCO)C2)c(Cl)cc1O (stereo unspecified) is listed as NPYLR7 agonist = 2; NPYLR7 agonist max-min = -1

Next part
Values in the order – NPYLR7 agonist | NPYLR7 agonist max-min
> CC(=C\c1ccccc1)/C=C1N=C(/C=C\c2cccc([N+](=O)[O-])c2)OC/1=O
 : 6 | -2
> CC(C)Cc1cc(CN2CCCC(C(=O)Nc3cccc(-n4cccn4)c3)C2)[nH]n1 (stereo unspecified)
 : 9 | 4
> Cc1onc(-c2c(Cl)cccc2Cl)c1C(=O)N1CCc2ccccc2C1c1ccccc1F (stereo unspecified)
 : -2 | 2
> Cc1noc(C)c1S(=O)(=O)N1CCCN(Cc2nnsc2Cl)CC1
 : -1 | 0
> Cc1cccc2c1NC(=O)C2(O)CC(=O)c1ccc(F)cc1 (stereo unspecified)
 : 5 | 3
> CC(=O)NCC(=O)N1[C@@H]2CC[C@H]1c1ccc(Nc3ncc(C(F)(F)F)c(NC4CCC4)n3)cc12
 : -3 | -5
> O=C(CSc1ccc2nnc(CCNC(=O)c3ccccc3)n2n1)NC1CCCC1
 : 16 | 2
> CC(C)[C@H](CO)n1cc2ncccc2c1O
 : -3 | -7
> COCCn1c(SCc2ccccc2F)nc2c([nH]c3ccccc32)c1=O
 : 6 | 4
> Cc1ccc(Cl)cc1N1CCN(S(=O)(=O)c2nn(C)cc2C(=O)NC2CCC(C)CC2)CC1 (stereo unspecified)
 : -4 | -5
> CCn1c(SCC(=O)NN=C(C)c2cccs2)nnc1-c1ccc(Cl)cc1
 : -3 | -6
> C=CCn1c(SCc2ccc(C(=O)NCc3ccco3)cc2)nnc1-c1ccccc1[N+](=O)[O-]
 : 18 | 26
> COc1cccc(OC)c1OCCCOc1ccc(C)cc1Br
 : 6 | 2
> O=C(NC1CCCC1)c1ccn(-c2cccc(Cl)c2)n1
 : -2 | -3
> CCOC(=O)C1CCN(C(=NS(=O)(=O)c2ccc(F)cc2)c2ccccc2)CC1
 : -5 | -11
> O=C(Cc1ccc2c(c1)CCO2)NCc1ccc2c(c1)OCO2
 : -12 | -15
> O=C1CCC2(CCCO2)CCN1Cc1ccncc1 (stereo unspecified)
 : 9 | 2
> O=C1c2cccc3cccc(c23)C(=O)N1c1ccc(N=Cc2c(O)ccc3ccccc23)cc1
 : -5 | -14
> Cc1nc(C)n(CC(C)C(=O)Nc2cc3c(C)cc(=O)oc3cc2C)n1 (stereo unspecified)
 : 9 | 3
> Fc1ccccc1Oc1cc(Cl)ncn1
 : 15 | 18
> Brc1cn[nH]c1C1CC1
 : 17 | 7
> O=C(c1cccc(-n2cccn2)c1)N1CC(=O)N(C2CCCCC2)CC(OCc2ccccn2)C1 (stereo unspecified)
 : 2 | -6
> CCOC(=O)C1=C(C)N(C)C(=S)NC1c1ccc(OC)cc1 (stereo unspecified)
 : 3 | 6
> CCNc1ncc(C(=O)N(C)Cc2ccsc2)cn1
 : 9 | 6
> Cc1ccc(C)c(NC(=O)c2ccccc2OCC2CCCO2)c1 (stereo unspecified)
 : 8 | 8
> COc1cccc(CN2CCn3nc(C(=O)NC(Cc4ccccc4)c4ccccc4)cc3C2=O)c1 (stereo unspecified)
 : 2 | 16
> O=C(COC(=O)c1ccc2c(c1)C(=O)N(c1ccccc1O)C2=O)c1cccc([N+](=O)[O-])c1
 : -1 | -6
> COc1cc(-c2cccc3cccnc23)cc(OC)c1OC
 : 0 | -3
> COCCn1c(C)cc(O)c(C(c2ccncc2)N2CCN(c3ccc(F)cc3)CC2)c1=O (stereo unspecified)
 : 10 | 8
> CN(C)S(=O)(=O)NCc1cccnc1N1CCN(c2ccccn2)CC1
 : 3 | -2

Structures shown so far with a thiophene ring, fused or not (8):
Values in the order – NPYLR7 agonist | NPYLR7 agonist max-min
> COc1ccc(C(=O)CSc2nc3sc(C)c(C)c3c(=O)n2Cc2ccco2)cc1
 : 1 | 1
> N#Cc1ccc(C=CC(=O)NCc2cccs2)cc1
 : 10 | 7
> Cc1ccccc1CSc1n[nH]c(=O)c2cc(-c3cccs3)nn12
 : -6 | -10
> CC(N)=C(C#N)C(=O)CSc1nc(C)nc2scc(-c3cccs3)c12
 : 3 | 8
> CSCCCNC(=O)c1ccc(-c2ccc3c(c2)OCCO3)s1
 : 27 | 39
> O=C(c1ccccc1C1CCNC1)N1CCc2sccc2C1 (stereo unspecified)
 : 6 | 4
> CCn1c(SCC(=O)NN=C(C)c2cccs2)nnc1-c1ccc(Cl)cc1
 : -3 | -6
> CCNc1ncc(C(=O)N(C)Cc2ccsc2)cn1
 : 9 | 6

(more compounds)
Values in the order – NPYLR7 agonist | NPYLR7 agonist max-min
> O=C(CN1CCN(c2cc(Oc3ccc(F)c(F)c3)ncn2)CC1)N1CCCC1
 : -6 | -4
> CCOC(=O)C1CCN(c2oc(C)nc2C#N)CC1
 : 4 | 1
> O=C(NCCc1ccc(F)cc1)c1ccc(SCc2ccccc2)nc1
 : -10 | -14
> CC(N)C(=O)OC(C)(C)Cc1ccc(Cl)cc1 (stereo unspecified)
 : -9&6 | -16&-11
> COc1ccc(C(C)=O)cc1Cn1c(C)c(C(=O)NCc2ccc3c(c2)OCO3)sc1=O
 : 13 | 3
> O=C(Nc1ccc(Cl)cc1)N1CCN(C(c2ccc(F)cc2)c2ccc(F)cc2)CC1
 : 16 | 21
> CCOc1ccccc1NC(=O)CSc1nc2c([nH]c3ccccc32)c(=O)n1CCOC
 : -1 | -1
> O=S(=O)(Nc1ccc2cn[nH]c2c1)c1ccc(S(=O)(=O)N2CCCC2)cc1
 : 4 | 8
> CCc1ccc(-c2nccn2Cc2ccc3c(c2)OCO3)nc1
 : -1 | 0
> CCCCOCCCNC(=O)c1c(C)noc1-c1ccccc1C
 : 30 | 15
> CN(C)S(=O)(=O)c1cc(NCC(=O)Nc2cccc(C(F)(F)F)c2)ccc1Cl
 : -4 | -5
> O=C(NCc1ccncc1)c1cc(-c2ccccc2)nc2ccccc12
 : -10 | -18
> O=C(Nc1cccnc1N1CCN(C(=O)c2cccs2)CC1)c1ccc2c(c1)OCO2
 : 25 | 14
> N#Cc1cccc(S(=O)(=O)NCc2ccc3c(c2)OCCO3)c1
 : 7&1 | 2&5
> COc1cccc(-c2noc(N3CCN4C(=O)NCC4C3)n2)c1 (stereo unspecified)
 : 4 | 3
> CC(C)NC(=O)N(CCN(C)C)Cc1c(-c2ccccc2)noc1N1CCc2ccccc2C1
 : 15 | 12

Reprinted at random: two records from the list
Values in the order – NPYLR7 agonist | NPYLR7 agonist max-min
> CC(N)C(=O)OC(C)(C)Cc1ccc(Cl)cc1 (stereo unspecified)
 : -9&6 | -16&-11
> CC(C)NC(=O)N(CCN(C)C)Cc1c(-c2ccccc2)noc1N1CCc2ccccc2C1
 : 15 | 12
